eIF4H FP inh – inhibitors of RNA binding by human eIF4H; Q15056; eIF4H fluorescence polarization binding assay; inhibition, % at 35 µM; actives 0.94% (n = 290,000); AID 2012;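 active = 50% or more with normal probe brightness, or confirmed in later tests; about a fifth of its hits are not listed in these tables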;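 note: calls also rest on retests at 20 µM and on dose response follow-up; 0% = protein and probe with vehicle and 100% = probe without protein; strong numbers were not always called active; many hits fall short of the cut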
HIV Env fusion – HIV envelope-mediated fusion inhibition; HeLa-JRFL Env/CEM21 cell fusion, luciferase; AID 651610; inhibition, % at 12.3 µM; actives 1.1% (n = 360,000);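 active = mean replicate inhibition score of at least 50 and every replicate individually at or above 50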;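 note: 0% = plate neutral controls and 100% = maraviroc near 300 nM; one replicate is shown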
Rce1 inhib – yeast Ras-converting enzyme inhibition; AID 2563; calls only; actives 0.27% (n = 290,000); Q03530; yeast membranes, quenched prenylated peptide cleavage fluorescence;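 active = fall in fluorescence gain of 50% or more versus controls, with final raw signal at or below 3038400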;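 note: plate controls were neutral control wells for no effect and wells lacking membranes for full effect; tested at 10 µM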
PABP polyA inh – blocks human PABP binding to poly(A) RNA; P11940; fluorescence polarization; inhibition, % at 35 µM; actives 1% (n = 290,000);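 active = 50% or more with normal probe brightness, or confirmed in later tests; about a fifth of its hits are not listed in these tables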;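 note: calls also rest on retests at 20 µM and on dose response follow-up; controls were probe without protein and protein plus probe with vehicle; some compounds called inactive have numbers as strong as hits; many hits fall short of the cut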
Target sequence (P11940 whole entry, looked up): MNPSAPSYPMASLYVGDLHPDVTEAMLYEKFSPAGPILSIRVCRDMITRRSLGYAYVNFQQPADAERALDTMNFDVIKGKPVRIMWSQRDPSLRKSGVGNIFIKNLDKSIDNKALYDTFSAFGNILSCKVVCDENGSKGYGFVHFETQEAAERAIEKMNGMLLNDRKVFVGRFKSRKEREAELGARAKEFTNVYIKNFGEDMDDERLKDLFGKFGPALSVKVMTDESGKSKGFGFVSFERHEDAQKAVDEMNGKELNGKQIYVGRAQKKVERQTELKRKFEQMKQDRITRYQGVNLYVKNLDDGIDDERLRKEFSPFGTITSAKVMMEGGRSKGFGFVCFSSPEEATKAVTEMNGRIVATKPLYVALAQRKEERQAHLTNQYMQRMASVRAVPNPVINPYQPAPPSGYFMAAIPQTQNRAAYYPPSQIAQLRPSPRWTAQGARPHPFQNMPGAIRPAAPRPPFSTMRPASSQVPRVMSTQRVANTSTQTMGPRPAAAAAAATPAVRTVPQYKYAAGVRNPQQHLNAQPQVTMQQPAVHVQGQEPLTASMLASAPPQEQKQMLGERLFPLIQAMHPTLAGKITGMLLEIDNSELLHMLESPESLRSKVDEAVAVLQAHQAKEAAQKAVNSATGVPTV
CSC inhib – cancer stem cell inhibition; cancer stem cell-like cells viability, luminescence; inhibition, % at 7.5 µM; actives 1.1% (n = 300,000); AID 2717;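 active = mean at 75% or more and at least half the replicates too; tested in HMLE shEcad cells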;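 note: 0% = median of negative and 100% = median of positive control wells; the first replicate is given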
Yeast UUG start – alters start codon recognition fidelity in yeast; S. cerevisiae UUG-firefly luciferase reporter, luminescence/redox ratio; activity score, % at 18.7 µM; actives 0.13% (n = 350,000); AID 602363;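 active = replicate mean at a twofold rise or more, about +100% in these data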;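 note: firefly luciferase made from a UUG start codon reports start codon fidelity; reporter light over untreated wells divided by growth signal over untreated wells; some hits fall short of that in this replicate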
MT1-MMP act inh – blocks activation of human MT1-MMP. actives 0.061% (n = 360,000). HT1080 RFP-PRO-GFP cells, GFP/RFP ratio fluorescence, overnight; percent of plate control window, DMSO zero. GFP/RFP ratio change, % at 20 µM;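 active = GFP/RFP ratio change of at least 30% with cell ATP level not reduced by more than half and red fluorescence within 50% of control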; note: strong numbers were not always called active
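Material – HT1080 RFP-PRO-GFP cells · Control set – DMSO wells and RFP-L50D-GFP cells · Incubation – overnight cell settling, then overnight compound exposure, 37 °C, 5% CO2 · Compound dosing – single-point 20 µM compound, 1% DMSO · Read-out – GFP/RFP fluorescence ratio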
MT1-MMP act inh RFP – further read-out of MT1-MMP act inh, marked with its call; RFP signal change, %; measured here: RFP expression control read;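 0 = vehicle wells; hits needed this value within 50% of zero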
Starred values were filed as active, the others as inactive; & = joins results of further samples.

`COc1ccc(C(=O)N/N=c2\oc3ccccc3cc2C(=O)NCc2ccccc2)cc1` gave eIF4H FP inh 5, HIV Env fusion -19, Rce1 inhib inactive, PABP polyA inh -2, CSC inhib -6, Yeast UUG start -10, MT1-MMP act inh 3 and MT1-MMP act inh RFP -3.
`CC(OC(=O)CCNS(=O)(=O)c1ccc(Cl)cc1)C(=O)N(C)Cc1ccccc1` (configuration not stated) gave HIV Env fusion 22, Yeast UUG start -4, MT1-MMP act inh 2 and MT1-MMP act inh RFP 0.
Screening O=[N+]([O-])c1cccc(-c2c(-c3ccccc3)ncc3ccc(F)cc23)c1 returned HIV Env fusion -11, CSC inhib 40, Yeast UUG start -7, MT1-MMP act inh -3 and MT1-MMP act inh RFP 0.
For CCC(C)NC(=O)C(=O)NCC1CCCN1CC (configuration not stated) the results were eIF4H FP inh -11, HIV Env fusion 1, PABP polyA inh 8, CSC inhib -2, Yeast UUG start -8, MT1-MMP act inh 3 and MT1-MMP act inh RFP 3.
For CCOC(=O)C1CCCCN1S(=O)(=O)c1cc2c(cc1C)NC(=O)CO2 (configuration not stated) the results were eIF4H FP inh -17, HIV Env fusion 5, Rce1 inhib inactive, PABP polyA inh 1, Yeast UUG start 1, MT1-MMP act inh 2 and MT1-MMP act inh RFP -10.
For CCN(CC)S(=O)(=O)c1ccc(Cl)c(NC(=O)COC(=O)c2ccc(O)cc2)c1 the results were eIF4H FP inh -6, HIV Env fusion 17, Rce1 inhib inactive, PABP polyA inh 5, CSC inhib -1, MT1-MMP act inh -5 and MT1-MMP act inh RFP 0.
For Cc1[nH]nc2c1/C(=N\O)CC(C)(C)C2 the results were eIF4H FP inh -2, Rce1 inhib inactive, PABP polyA inh 0, CSC inhib 10, Yeast UUG start -7, MT1-MMP act inh -3 and MT1-MMP act inh RFP 4.
For N#C/C(=C\c1ccc(O)c(O)c1)C(=O)Nc1cccc2ncccc12 the results were eIF4H FP inh 90*, HIV Env fusion 18, Rce1 inhib inactive, PABP polyA inh 68*, CSC inhib 17, Yeast UUG start -18, MT1-MMP act inh -12 and MT1-MMP act inh RFP 0.
CCOC(=O)C(=CNc1cccc(N)n1)C(=O)OCC was read as eIF4H FP inh -3, HIV Env fusion -230, Rce1 inhib inactive, PABP polyA inh -7, CSC inhib 4, Yeast UUG start -10, MT1-MMP act inh 0 and MT1-MMP act inh RFP -2.
Screening Cn1cc([N+](=O)[O-])c(C(=O)NCc2ccccc2)n1 returned eIF4H FP inh -9, HIV Env fusion 4, Rce1 inhib inactive, PABP polyA inh 8, CSC inhib 2, MT1-MMP act inh 0 and MT1-MMP act inh RFP 3.
Screening O=C(NCCNC(=O)c1ccc(F)cc1)c1ccc(F)cc1 returned HIV Env fusion 7, Rce1 inhib inactive, Yeast UUG start -15, MT1-MMP act inh -1 and MT1-MMP act inh RFP 3.
Cc1ccccc1-n1c(SCC(=O)N(C)C2CCS(=O)(=O)C2)nnc1-c1ccncc1 (configuration not stated) was read as eIF4H FP inh 4, HIV Env fusion -6, Rce1 inhib inactive, PABP polyA inh 24, CSC inhib -8, Yeast UUG start -17, MT1-MMP act inh 1 and MT1-MMP act inh RFP 4.

Looked up by compound from the list above:
For CCC(C)NC(=O)C(=O)NCC1CCCN1CC (configuration not stated) the results were eIF4H FP inh -11, HIV Env fusion 1, PABP polyA inh 8, CSC inhib -2, Yeast UUG start -8, MT1-MMP act inh 3 and MT1-MMP act inh RFP 3.
For CCN(CC)S(=O)(=O)c1ccc(Cl)c(NC(=O)COC(=O)c2ccc(O)cc2)c1 the results were eIF4H FP inh -6, HIV Env fusion 17, Rce1 inhib inactive, PABP polyA inh 5, CSC inhib -1, MT1-MMP act inh -5 and MT1-MMP act inh RFP 0.

Further structures:
`CCN=C1SC(C(=O)Nc2cccc(Br)c2)CC(=O)N1CC` (configuration not stated) gave eIF4H FP inh -2, HIV Env fusion -7, Rce1 inhib inactive, PABP polyA inh 0, CSC inhib -6, MT1-MMP act inh -2 and MT1-MMP act inh RFP -3.
Screening COc1cccc(C2=NOC(C(=O)Nc3ccc(C(C)=O)cc3)C2)c1 (configuration not stated) returned eIF4H FP inh -30, HIV Env fusion -17, Rce1 inhib inactive, PABP polyA inh -17, CSC inhib 4, Yeast UUG start -14, MT1-MMP act inh 1 and MT1-MMP act inh RFP 1.
Cc1ccc(/C=C(\C#N)C(=O)NCC2CCCO2)o1 (configuration not stated) was read as eIF4H FP inh 9, HIV Env fusion 0, Rce1 inhib inactive, PABP polyA inh -10, CSC inhib 17, Yeast UUG start 9, MT1-MMP act inh -2 and MT1-MMP act inh RFP 5.
`CC(C)c1ccc(NC(=O)COc2ccc(C3SCCS3)cc2)cc1` gave eIF4H FP inh 8, HIV Env fusion 10, Rce1 inhib inactive, PABP polyA inh -5, CSC inhib -20, MT1-MMP act inh -1 and MT1-MMP act inh RFP -1.
COc1ccc(CCNC(=O)c2ccc3c(c2)NC(=O)C(N2CCOCC2)S3)cc1OC (configuration not stated) was read as eIF4H FP inh -4, Rce1 inhib inactive, PABP polyA inh -5, CSC inhib -20, Yeast UUG start -1, MT1-MMP act inh -4 and MT1-MMP act inh RFP -6.
For Cc1nn(S(=O)(=O)c2ccc(F)cc2)c(C)c1S(=O)(=O)N1CCOCC1 the results were eIF4H FP inh 2, HIV Env fusion -1, Rce1 inhib inactive, PABP polyA inh -6, CSC inhib 10, Yeast UUG start -23, MT1-MMP act inh -1 and MT1-MMP act inh RFP -2.
COc1cccc(C(=O)Nc2cc3c(cc2C(C)=O)OCCO3)c1 was read as eIF4H FP inh -2, HIV Env fusion 3, Rce1 inhib inactive, PABP polyA inh 11, CSC inhib -16, Yeast UUG start -14, MT1-MMP act inh 1 and MT1-MMP act inh RFP 2.
`CCOC(=O)c1cc(-c2ccc(C)c([N+](=O)[O-])c2)nc2c1c(=O)n(C)c(=O)n2C` gave eIF4H FP inh 4, Rce1 inhib inactive, PABP polyA inh -7 and CSC inhib -2.
O=C(NCC1COc2ccccc2O1)C1CCN(S(=O)(=O)c2ccccc2)CC1 (configuration not stated) was read as HIV Env fusion -2, CSC inhib 6, Yeast UUG start 0, MT1-MMP act inh 3 and MT1-MMP act inh RFP 1.
Screening CCC(CC)NC(=O)c1cc([N+](=O)[O-])ccc1N1CCOCC1 returned eIF4H FP inh -10, HIV Env fusion -1, Rce1 inhib inactive, PABP polyA inh -1, MT1-MMP act inh -4 and MT1-MMP act inh RFP 1.
O=C(COC(=O)c1ccc(O)cc1)Nc1cc(S(=O)(=O)N2CCCCCC2)ccc1Cl was read as HIV Env fusion 13, Yeast UUG start -2, MT1-MMP act inh -3 and MT1-MMP act inh RFP -4.
`CCC(=O)Nc1nc(CC(=O)Nc2ccccc2OC)cs1` gave eIF4H FP inh 0, Rce1 inhib inactive, PABP polyA inh -5, CSC inhib 3, Yeast UUG start -11, MT1-MMP act inh 3 and MT1-MMP act inh RFP 0.
CCCCc1ccc(/C=C2/C(=O)ON=C2c2ccccc2)s1 was read as eIF4H FP inh 3, HIV Env fusion -34, Rce1 inhib inactive, PABP polyA inh 2, CSC inhib 7, MT1-MMP act inh -1 and MT1-MMP act inh RFP -2.
`Cc1ccccc1CNS(=O)(=O)c1ccccc1[N+](=O)[O-]` gave eIF4H FP inh -6, HIV Env fusion 1, Rce1 inhib inactive, PABP polyA inh -2, CSC inhib -12, Yeast UUG start -8, MT1-MMP act inh -2 and MT1-MMP act inh RFP -5.
For Nc1ccc(-c2n[nH]c(=O)c3ccccc23)cc1N the results were eIF4H FP inh 8, HIV Env fusion 29, Rce1 inhib inactive, PABP polyA inh -4, CSC inhib 6, Yeast UUG start -23, MT1-MMP act inh 2 and MT1-MMP act inh RFP 0.
Screening O=C(O)COCC(=O)N1CCN(C2c3ccccc3-c3ccccc32)CC1 returned eIF4H FP inh -2, HIV Env fusion 1, Rce1 inhib inactive, PABP polyA inh -2, CSC inhib -10, MT1-MMP act inh -1 and MT1-MMP act inh RFP 1.
Screening CCNC(=S)NNC(=O)c1cc(C2CC2)nc2ccccc12 returned eIF4H FP inh 13, HIV Env fusion -19, Rce1 inhib inactive, PABP polyA inh 6, CSC inhib 3, Yeast UUG start -30, MT1-MMP act inh 1 and MT1-MMP act inh RFP 3.
`CC(C(=O)Nc1ccc(Cl)cc1)c1ncc(C(F)(F)F)cc1Cl` (configuration not stated) gave eIF4H FP inh 8, Rce1 inhib inactive, PABP polyA inh -5, CSC inhib 0, Yeast UUG start 10, MT1-MMP act inh 2 and MT1-MMP act inh RFP -7.
For COc1ccnc(NCc2cccnc2)c1C#N the results were eIF4H FP inh 0, Rce1 inhib inactive, PABP polyA inh 4, CSC inhib -17, MT1-MMP act inh 0 and MT1-MMP act inh RFP 0.
`NC(=O)c1ccc(NC(=O)CNCc2ccccc2Cl)cc1` gave eIF4H FP inh -4, HIV Env fusion -4, Rce1 inhib inactive, PABP polyA inh -8, CSC inhib -9, Yeast UUG start -15, MT1-MMP act inh 3 and MT1-MMP act inh RFP -2.
Screening CCOC(=O)c1cn(-c2ccc([N+](=O)[O-])cc2)c2cc(Cl)c([N+](=O)[O-])cc2c1=O returned eIF4H FP inh 7, HIV Env fusion 26, Rce1 inhib inactive, PABP polyA inh 5, CSC inhib 10, MT1-MMP act inh 0 and MT1-MMP act inh RFP 3.
`CCCCN1C2=C(C(=O)CC(C)(C)C2)C(c2ccccc2)C2=C1c1ccccc1C2=O` (configuration not stated) gave eIF4H FP inh -8, Rce1 inhib inactive, PABP polyA inh -4, CSC inhib 16, Yeast UUG start 10, MT1-MMP act inh 0 and MT1-MMP act inh RFP 3.
For CCN1C(=O)/C(=C2\SC(=S)N(CCCOC)C2=O)c2ccccc21 the results were eIF4H FP inh -2, Rce1 inhib inactive, PABP polyA inh -8, CSC inhib 0, Yeast UUG start -21, MT1-MMP act inh 0 and MT1-MMP act inh RFP 0.
For Cc1ccc(NCc2nnc(SCCN3CCCCC3)n2CC2CCCO2)c(C)c1 (configuration not stated) the results were eIF4H FP inh 1, HIV Env fusion -8, Rce1 inhib inactive, PABP polyA inh -10, CSC inhib -8, Yeast UUG start -7, MT1-MMP act inh 3 and MT1-MMP act inh RFP 4.
For COc1cc(C(=O)Nc2nc3ccccc3s2)ccc1OCc1c(C)noc1C the results were eIF4H FP inh -1, HIV Env fusion 31, PABP polyA inh -1, CSC inhib 23, Yeast UUG start -2, MT1-MMP act inh 16 and MT1-MMP act inh RFP -13.
Screening NS(=O)(=O)c1ccc2c(c1)C1C=CCC1C(C1CC=CCC1)N2 (configuration not stated) returned eIF4H FP inh 53*, HIV Env fusion -96, Rce1 inhib inactive, PABP polyA inh 82*, CSC inhib 5, Yeast UUG start -7, MT1-MMP act inh -16 and MT1-MMP act inh RFP 6.
`Cc1ccc(NC(=S)Nn2cnnc2)cc1` gave eIF4H FP inh 0, HIV Env fusion -12, Rce1 inhib inactive, PABP polyA inh 4, CSC inhib -21, Yeast UUG start -28, MT1-MMP act inh -1 and MT1-MMP act inh RFP 1.
Screening CCOc1ccc(NC(=O)CCNS(=O)(=O)c2ccc3c(c2)c(=O)n(C)c(=O)n3C)cc1 returned eIF4H FP inh -9, Rce1 inhib inactive, PABP polyA inh 3, CSC inhib -14, Yeast UUG start -5, MT1-MMP act inh -3 and MT1-MMP act inh RFP 3.
For CN(CC(=O)Nc1ccc(Cl)c(C(F)(F)F)c1)C(=O)c1cc(=O)[nH]c2ccccc12 the results were HIV Env fusion 2, Rce1 inhib inactive, CSC inhib -10, Yeast UUG start -1, MT1-MMP act inh 3 and MT1-MMP act inh RFP -2.
Screening C[C@@H]1CCCCO[C@H](CN(C)C(=O)CCC(F)(F)F)[C@@H](C)CN([C@H](C)CO)C(=O)c2cc(NC(=O)c3ccncc3)ccc2O1 returned HIV Env fusion -16, Yeast UUG start -10&-1, MT1-MMP act inh 2 and MT1-MMP act inh RFP 6.
`COc1ccc(NC(=O)c2cccs2)cn1` gave eIF4H FP inh 7, HIV Env fusion -17, Rce1 inhib inactive, PABP polyA inh -8, CSC inhib -1, MT1-MMP act inh 0 and MT1-MMP act inh RFP -5.

Assay outcomes from PubChem.

The list is partial, so the mix of outcomes need not match the whole.
